Marburg entry inh = qHTS for inhibitors of binding or entry into cells for Marburg Virus; Marburg virus pseudotyped entry inhibition, cell reporter; control for the full effect not named in the record; about a third of the inactives were read at about 46 µM; Potency, µM (highest dose often 37.8 µM), inactives show top-dose activity change, negative = inhibition, most hits filed as inhibitors; 300,000 compounds, 1.8% hits; AID 540276, 2011; active = well fitted inhibition curve with a large enough effect; inconclusive = small, poorly fitted or top-dose-only effect, or effect the other way; inactive = flat fitted curve, though single readings scatter; tested in HEK293 cells; about a fifth of its hits are not listed in these tables; note: luciferase read-out
* hit, by the source's call; u = inconclusive; & = joins results of further samples; [ ] = remark or other dose. % is set by controls: 0 for no effect and ±100 for the full control effect; potency is the fitted concentration of half-maximal effect.

SMILES | Marburg entry inh
COC(=O)C1=C(C)N(CC2CC2)C(=O)NC1c1ccccc1 (stereo not drawn) | -5%[14.2 µM]
COC1=C[C@H](C(=O)NCc2ccccc2)[C@H](C)[C@@H](c2ccccc2)CC1=O | -1%[14.2 µM]
CC(C)=CCC/C(C)=C/CO/N=C1/C[C@@H](O)[C@@H](O)[C@@H]2[C@@H]3C(=O)N(C[C@@H]4CCCO4)C(=O)[C@H]3CC[C@@H]12 | 22%[14.2 µM]
CCOC(=O)C1=CN(CCc2cn(Cc3ccccc3)nn2)C(=O)NC1c1ccccc1 (stereo not drawn) | -8%[14.2 µM]
COc1ccc(NC(=O)N2CCc3nc(-c4ccc(OC)cc4C)c4c(c3C2)CO[C@@H](c2ccccc2)C4)cc1 | u
Cc1ccc(S(=O)(=O)N[C@@H](CCc2ccccc2)CC(=O)C(C)(C)C)cc1 | 2%[14.2 µM]
CC(=O)OC[C@@H]1O[C@H](CCO/N=C(\C)CCN2CCCc3nc(C)c(C)cc32)C=C[C@@H]1OC(C)=O | -28%[14.2 µM]
Cc1cc2c(c(=O)n1Cc1ccccc1)[C@H]1O[C@](CCCCN3C(=O)c4ccccc4C3=O)(Cc3c1ccc1ccccc31)O2 | -11%[14.2 µM]
N[C@H](Cn1ccc(=O)[nH]c1=O)C(=O)O | 3%
CC(C)[C@@H](OCc1ccccc1)[C@H](C)/C=N/OC[C@@H](O)COCc1ccco1 | u
CC(C)=CCCC(C)=CCN1C(=O)[C@@]2(CC(C)=CC[C@@H](C)O2)c2c(Br)cccc21 | 0%[14.2 µM]
COc1ccc(/C(O)=C2\C(=O)C(=O)N(CCN3CCOCC3)[C@H]2c2ccccn2)cc1 | 2%[46.1 µM]
COCOc1c2c(c(OCOC)c3c(OCOC)cccc13)C(=NNS(=O)(=O)c1ccc(C)cc1)C1=C2CCCC1 | -17%[14.2 µM]
CC(C)[C@@H]1Cc2c(C#N)c(N)n(C)c(=S)c2CO1 | 3%
C[C@H]1C=CCC(=O)N[C@@H](c2ccc3ccccc3c2)[C@@H](C)C=CCC(=O)N[C@@H]1c1ccc2ccccc2c1 | 20%[14.2 µM]
Cc1cc2c(c(=O)n1Cc1ccccc1)[C@H]1O[C@](c3ccsc3)(Cc3ccccc31)O2 | -12%[14.2 µM]
COc1ccc([C@]23Cc4cc(C#N)ccc4[C@H](O2)C2=C(CC4(CCCCC4)OC2=O)O3)cc1 | 1%[14.2 µM]
COCCN1C(=O)C2=C(C1=O)C1N(C)c3ccccc3[C@@]13C[C@@H](CO)N=C3N2 (stereo partly drawn) | 25%[14.2 µM]
COc1ccc(O[C@H]2C=C[C@@H](c3ccccc3)O[C@H]2CON=C[C@@H](C)[C@H](OCc2ccccc2)C(C)C)cc1 | u
CCOc1ccc(NC(=O)CSC2=C(C#N)[C@H](c3ccc4c(c3)OCO4)CC(=O)N2)cc1 | 5%[46.1 µM]
CCCCCC(=O)N1C[C@H](n2cc(COC(=O)c3ccccc3)nn2)[C@@H](O)C[C@H]1c1ccccc1 | u
C=CC[C@@H]1C=C[C@H](ON=C(C)CCN2CCc3nc(CC)c(CC)cc3C2)[C@H](CO)O1 | u
CC[C@@H](c1ccccc1)n1c(=O)n2n(c1=O)[C@H]1[C@H](O)[C@@H]3O[C@@H]3/C(=N\OCc3ccccc3)[C@H]1CC2 | u
CCCCCC(=O)N1C[C@H](O)[C@@H](n2cc(COC(=O)c3ccccc3)nn2)C[C@H]1c1ccc(OC)cc1 | u
C[C@]1(C(=O)CSc2nc3ccccc3[nH]2)CCC(=O)O1 | -1%
COC(=O)N1C2CC3(C)CC(=O)CC1(C)C3c1ccccc12 (stereo not drawn) | 5%&5%[14.2 µM]
CCCc1nn(C)c2c1[C@@H](c1cccnc1)C(C#N)=C(N)O2 | -4%
C=CCN1c2ccccc2[C@]23CCC(=O)N(Cc4cc(OC)c(OC)c(OC)c4)C2=NC(C(=O)OC)=C(C(=O)OC)[C@H]13 | -7%[14.2 µM]
COc1cccc([C@H]2Oc3ccc(OC)cc3C(=NO[C@@H](C)c3cn([C@H](CO)Cc4ccccc4)nn3)[C@H]2O)c1 | 5%[14.2 µM]
CCOC(=O)CCN1C(=O)[C@H]2[C@H]3[C@H](O)[C@H](O)C/C(=N\NC(=O)OCc4ccc(OC)cc4)[C@@H]3CC[C@H]2C1=O | 12%[14.2 µM]
COC(=O)NC(CC(C)=O)c1cccc(C(F)(F)F)c1 (stereo not drawn) | 0%
Cc1ccc2[nH]c3c(c2c1)CN(C(=O)CN1C[C@@H](C)O[C@@H](C)C1)CC3 | 6%
CCCCCCCc1cc2ccccc2c2c(C(=O)OC)c(C)c(C(=O)OC)n12 | u
CCC[C@@H]1[C@@H]2C(=O)N(c3ccccc3OC)C(=O)[C@H]2ON1c1ccccc1 | 2%
CCc1ccc(NC(=O)CSC2=C(C#N)[C@H](c3ccco3)C3=C(CCCC3=O)N2)cc1 | -29%
O=C(N/N=C1/C[C@@H](O)[C@@H](O)[C@@H]2[C@@H]3C(=O)N(C[C@@H]4CCCO4)C(=O)[C@H]3CC[C@@H]12)OCc1ccccc1 | -5%[14.2 µM]
COC(=O)N(C)C1=C(C(=O)N2CCOCC2)CCCC1 | -10%
CN1[C@@H]2CC[C@H]1CC(O[C@@H](c1ccccc1)c1ccccc1N)C2 (stereo partly drawn) | u
CCCCc1nc2c(c3c1C[C@H](C)OC3)CN(C(=O)Cc1cccc(OC)c1)CC2 | 2%&2%&2%[14.2 µM]
CCc1cc2c(nc1CC)CCN(CCC(C)=NOC[C@@H](C)[C@H](OCc1ccccc1)C(C)C)C2 | -17%[14.2 µM]

An excerpt of these results, as a markdown table.
| canonical_smiles | Marburg entry inh |
| --- | --- |
| COC(=O)NC(CC(C)=O)c1cccc(C(F)(F)F)c1 (stereo not drawn) | 0% |
| Cc1ccc2[nH]c3c(c2c1)CN(C(=O)CN1C[C@@H](C)O[C@@H](C)C1)CC3 | 6% |

6 compounds from above, arranged by length of the SMILES, smallest number first:
SMILES | Marburg entry inh
COC(=O)NC(CC(C)=O)c1cccc(C(F)(F)F)c1 (stereo not drawn) | 0%
COC(=O)N1C2CC3(C)CC(=O)CC1(C)C3c1ccccc12 (stereo not drawn) | 5%&5%[14.2 µM]
CCc1cc2c(nc1CC)CCN(CCC(C)=NOC[C@@H](C)[C@H](OCc1ccccc1)C(C)C)C2 | -17%[14.2 µM]
C=CCN1c2ccccc2[C@]23CCC(=O)N(Cc4cc(OC)c(OC)c(OC)c4)C2=NC(C(=O)OC)=C(C(=O)OC)[C@H]13 | -7%[14.2 µM]
CCOC(=O)CCN1C(=O)[C@H]2[C@H]3[C@H](O)[C@H](O)C/C(=N\NC(=O)OCc4ccc(OC)cc4)[C@@H]3CC[C@H]2C1=O | 12%[14.2 µM]
O=C(N/N=C1/C[C@@H](O)[C@@H](O)[C@@H]2[C@@H]3C(=O)N(C[C@@H]4CCCO4)C(=O)[C@H]3CC[C@@H]12)OCc1ccccc1 | -5%[14.2 µM]

Other records:
SMILES | Marburg entry inh
CCOC(=O)C1NNN2C3CCCCC3C(N(CC)CC)NC12 (stereo not drawn) | 18%[46.1 µM]
O=C1C[C@@H](c2ccccc2)[C@H](c2ccc(Br)cc2)O1 | -17%[14.2 µM]
C=CC[C@@H]1C=C[C@H](ON=C[C@@H](N[S+](=O)([O-])c2ccc(C)cc2)[C@H](C)C=CCC(=O)OC)[C@H](CO)O1 | -14%[14.2 µM]
CCc1cc2c(nc1CC)CCN(CCC(C)=NOC[C@H]1O[C@H](c3ccccc3)C=C[C@H]1Oc1ccc(OC)cc1)C2 | -25%[14.2 µM]
CC(=O)OC[C@H]1O[C@@H](ON=CC[C@@H]2C=C[C@@H](OC(C)=O)[C@@H](COC(C)=O)O2)[C@@H](OC(C)=O)[C@@H](OC(C)=O)[C@@H]1OC(C)=O | -12%[14.2 µM]
COC(=O)C1=C(C)N=C2S[C@H](C)C(=O)N2[C@@H]1c1cccc(F)c1 | -10%
CC(=O)OC[C@H]1O[C@H](C#CCCCc2ccccc2)C=C[C@H]1OC(C)=O | u
COc1cc2c(cc1OC)[C@@H]1O[C@](c3ccsc3)(C2)Oc2c1c(=O)oc1ccc(F)cc21 | 28%[14.2 µM]
COc1ccc([C@H]2C[C@@H](O)[C@H](n3cc(-c4ccc(F)cc4)nn3)CN2Cc2cccs2)cc1 | 8.9µM*
Cc1cc(NC[C@@H]2CCCO2)n2c(nc3ccccc32)c1C#N | 1%[46.1 µM]
CC(C)C1=C2OC(N)=C(C#N)C(C#N)=C2[C@H](C)CC1 | -1%
C#Cc1ccccc1C[C@]1(C(=O)OC)C=C[C@H](C)[C@@H](c2ccccc2Br)N1C(=O)C(F)(F)F | 7%[14.2 µM]
CC[C@@H](c1ccccc1)n1c(=O)n2n(c1=O)[C@H]1[C@H](O)[C@H]3O[C@@H]3/C(=N/OCc3ccccc3)[C@@H]1CC2 | u
CCCCCC1=CC2=C(C(=O)OC)C(c3ccccc3)NC(=O)N2CC1 (stereo not drawn) | 1%[14.2 µM]
CCOC(=O)CN1C(=O)[C@]2(OCCC=C[C@@H]2C)c2ccccc21 | 1%[14.2 µM]
O=C(NN=C1C[C@@H](O)[C@H](O)[C@H]2[C@@H]3C(=O)N(C4CCCCC4)C(=O)[C@@H]3CC[C@@H]12)OCc1ccccc1 | -13%[14.2 µM]
COc1ccc(N2CCN(c3nc4c(c(=O)[nH]c(=O)n4C)n3CCCc3ccccc3)CC2)cc1 | 0%
CCC(=O)N(Cc1cccs1)[C@@H]1CCOC(C)(C)C1 | -16%[46.1 µM]
C[C@H](O)c1n(C)c(Cl)c[n+]1C | 9%
CCCC[C@]12Cc3c(ccc4ccccc34)[C@H](O1)c1c(cc(C)oc1=O)O2 | u

Some values from the results shown:
CCCCCC1=CC2=C(C(=O)OC)C(c3ccccc3)NC(=O)N2CC1 (stereo not drawn) in Marburg entry inh is entered as 1%[14.2 µM]
CCOC(=O)C1NNN2C3CCCCC3C(N(CC)CC)NC12 (stereo not drawn) in Marburg entry inh is entered as 18%[46.1 µM]
C[C@H](O)c1n(C)c(Cl)c[n+]1C in Marburg entry inh is entered as 9%
CCOC(=O)CN1C(=O)[C@]2(OCCC=C[C@@H]2C)c2ccccc21 in Marburg entry inh is entered as 1%[14.2 µM]
CCC(=O)N(Cc1cccs1)[C@@H]1CCOC(C)(C)C1 in Marburg entry inh is entered as -16%[46.1 µM]

Next results:
SMILES | Marburg entry inh
CC(=O)C1=C(C)N(Cc2ccccc2)C(=O)N[C@@H]1CCc1ccccc1 | u
CC(C)C1(C)C(=O)N=C2C3=C(CCCC3)C(=O)N21 (stereo not drawn) | 17%[46.1 µM]
Cc1ccc(N(CN2C(=O)[C@H]3CC=CC[C@@H]3C2=O)C(=O)c2ccco2)cc1Cl | -20%
Nc1ccc(CCNc2ncnc3c2ncn3[C@@H]2O[C@@H](CO)[C@H](O)[C@@H]2O)cc1 | -6%
O=C1CCCC=C1C(O)CCOCc1ccccc1 (stereo not drawn) | 7%[14.2 µM]
NC[C@H](O)c1cc(O)c(O)cc1F | -6%
CSC1=C(C#N)[C@H](C)CC(=O)N1 | -17%
CCOC(=O)CCN1C(=O)[C@H]2[C@H]3[C@H](O)[C@H](O)C/C(=N\NC(=O)OCc4ccccc4)[C@@H]3CC[C@H]2C1=O | 29%[14.2 µM]
COc1ccc([C@]23Cc4cc(C#N)ccc4[C@H](O2)c2c(c4ccc(OC)cc4oc2=O)O3)cc1 | u
CCCC[C@]12Cc3c(ccc4ccccc34)[C@H](O1)C1=C(O2)C(=O)c2ccccc2C1=O | 22%[14.2 µM]
O=C1[C@H]2[C@H]3[C@H](O)[C@H](O)C/C(=N\OC[C@@H](O)COCc4ccco4)[C@H]3CC[C@H]2C(=O)N1C[C@@H]1CCCO1 | -1%[14.2 µM]
CC1=C(C)Cc2c(nnn2-c2nc(C)nc3sc4c(c23)CCCC4)C1 | -5%
C[C@@H]1CC2CCCC2[C@]2(O1)C(=O)Nc1ccccc12 (stereo partly drawn) | -4%[14.2 µM]
COc1ccc2c(c1)CO[C@H]([C@H](O)COC(C)=O)[C@H]2C=Cc1ccccc1 | -2%[14.2 µM]
CCCCS(=O)(=O)N1C2=NC3=C(C(=O)N(CCOC)C3=O)C3N(C)c4ccccc4[C@]23C[C@H]1CO (stereo partly drawn) | -13%[14.2 µM]
CN1CCc2c(n(C[C@H](O)CN3C(=O)c4ccccc4S3(=O)=O)c3ccccc23)C1=O | -20%
O=C1CCCC2=C1[C@H]1O[C@](c3ccsc3)(Cc3c1ccc1ccccc31)O2 | -14%[14.2 µM]
COc1ccc(O[C@@H]2[C@H](O)CO[C@@H]2C=CC#Cc2ccccc2)cc1 | 8%[14.2 µM]
CC1C=C2OC(N)=C(C#N)C(c3ccncc3)C2C(=O)N1CCN(C)C (stereo not drawn) | 1%
Cc1ccc(C#C[C@@H]2C=C[C@H](Oc3ccc4c(c3)OCO4)[C@@H](CO)O2)c(C)c1 | 11%&11%[14.2 µM]
O=C1C2Cc3c([nH]c4ccccc34)C(c3ccccc3)N2C(=O)C2Cc3c([nH]c4ccccc34)C(c3ccccc3)N12 (stereo not drawn) | u
COC(=O)C1=C(C)N(Cc2ccccc2)C(=O)NC1CCc1ccccc1 (stereo not drawn) | 23%[14.2 µM]
CCCCCCCc1cc2ccccc2c2c(C(=O)OCC)c(C(=O)OCC)c(C(=O)OCC)n12 | -5%[14.2 µM]
C=CCOC(=O)N[C@@H](c1cccc(OC)c1)[C@@H](C)C=CCC(=O)O | 7%[14.2 µM]
O=C(C1C=CC(C(=O)N2CCOCC2)S1)N1CCOCC1 (stereo not drawn) | 19%[46.1 µM]
COc1cc([C@H](O)CO)ccc1O | 15%
COc1cccc([C@@H]2Oc3ccc(OC)cc3C[C@@H]2OC(=O)N[C@H]2CCCc3ccccc32)c1 | 3%[14.2 µM]
COC(=O)C1=C(C(=O)OC)[C@@H]2N(Cc3ccccc3)c3ccccc3[C@@]23C[C@@H](CO)N=C3N1 | u
COC1=C(OC)CC2=C(CCN=C2/C(=N\O)C2CCC(OC)C(OC)C2)C1 (stereo not drawn) | -4%[46.1 µM]

Screening data deposited in PubChem by National Center for Advancing Translational Sciences (NCATS).

These rows are one share of the data, so the mix of outcomes need not match the whole.
